NPR1 antag: human Npr1 receptor antagonism | actives 1.6% (n = 76,000) | HEK293 hNpr1 GloSensor cGMP, ANP-stimulated luminescence | Potency, µM (titrated, usually from 46.3 µM), for the others: at the top dose activity change, negative = inhibition, hits mostly inhibitors; active = well fitted inhibition curve with a large enough effect; inconclusive = small, poorly fitted or top-dose-only effect; inactive = no such curve, though single readings can be large or run the other way;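 also: nearly all actives have a fitted effect of over 60% in size; nearly all hits also lower the signal before the agonist is added; a reference antagonist and vehicle were the controls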
Target sequence (P16066 whole entry, looked up): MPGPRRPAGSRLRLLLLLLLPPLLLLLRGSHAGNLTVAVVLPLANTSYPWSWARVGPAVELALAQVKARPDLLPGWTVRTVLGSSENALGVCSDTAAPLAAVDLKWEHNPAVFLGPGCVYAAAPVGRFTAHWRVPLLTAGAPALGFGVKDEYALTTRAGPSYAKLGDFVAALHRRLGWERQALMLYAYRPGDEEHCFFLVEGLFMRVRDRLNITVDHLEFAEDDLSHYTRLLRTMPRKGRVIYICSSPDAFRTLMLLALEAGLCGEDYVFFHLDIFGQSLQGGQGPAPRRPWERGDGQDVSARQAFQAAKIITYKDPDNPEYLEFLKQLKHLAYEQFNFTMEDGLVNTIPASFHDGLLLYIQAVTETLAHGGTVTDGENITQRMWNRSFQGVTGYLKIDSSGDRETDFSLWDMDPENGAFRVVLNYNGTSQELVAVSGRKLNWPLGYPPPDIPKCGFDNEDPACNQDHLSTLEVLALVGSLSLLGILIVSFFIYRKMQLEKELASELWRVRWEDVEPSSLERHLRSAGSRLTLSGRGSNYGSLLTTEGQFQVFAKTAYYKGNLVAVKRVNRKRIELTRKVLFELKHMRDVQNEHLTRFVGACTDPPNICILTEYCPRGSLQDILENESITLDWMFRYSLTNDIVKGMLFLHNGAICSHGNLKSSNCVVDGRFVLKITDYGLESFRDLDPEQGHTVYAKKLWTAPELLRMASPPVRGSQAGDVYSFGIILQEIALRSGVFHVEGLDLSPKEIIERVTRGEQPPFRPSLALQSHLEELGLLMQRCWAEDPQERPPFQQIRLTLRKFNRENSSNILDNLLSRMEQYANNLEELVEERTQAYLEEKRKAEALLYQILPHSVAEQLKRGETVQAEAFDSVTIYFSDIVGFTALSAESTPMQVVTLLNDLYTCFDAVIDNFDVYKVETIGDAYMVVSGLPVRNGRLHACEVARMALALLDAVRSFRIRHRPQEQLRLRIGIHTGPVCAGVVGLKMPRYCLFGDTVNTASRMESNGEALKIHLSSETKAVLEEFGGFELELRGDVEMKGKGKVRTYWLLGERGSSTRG
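HEK293 cells stably expressing human Npr1 and cGMP GloSensor pGS-40F, loaded 2 h with 2% GloSensor reagent, given compound 30 min at room temperature. Luminescence read before and 20 min after 0.1 nM hNppA.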
The depositor's hits bear a star; ? = inconclusive; [ ] = remark or other dose. % is scaled to controls: 0 for no effect and ±100 for the full control effect; potency is read from the fitted curve at half-maximal effect. A portion of the library (hit frequency here may not be typical).

structure: O=C(COc1ccccc1)NC1CCCN(c2cc(-c3ccc(F)cc3)[nH]n2)C1 (stereo unspecified)
  NPR1 antag: 1%
structure: O=C(c1ccncc1)N1CCCN(Cc2cccnc2)c2ccccc21
  NPR1 antag: -14%
structure: CN1CC(=O)N(c2ccccc2F)Cc2c(NCc3ccc(F)cc3)ncnc21
  NPR1 antag: 0%
structure: O=C(CCc1conc1-c1ccccc1F)NCc1ccc(Cl)cc1
  NPR1 antag: -6%
structure: Cc1nn2c(c1-c1ccccc1Oc1ccccc1)N(Cc1cccc(C(=O)O)c1)CCC2
  NPR1 antag: ?
structure: O=C(Nc1ccc2c(c1)OCCO2)N1c2ccccc2CC1c1nc(C2CC2)no1 (stereo unspecified)
  NPR1 antag: -18%
structure: COC(=O)[C@H](Cc1ccc(OC)cc1)NC(=O)[C@@H]1CN(C(=O)c2cccc(F)c2)CCN1C(=O)c1cccc(F)c1
  NPR1 antag: 6%
structure: COc1ccc(C(=O)N2CCN(c3cc(C(F)(F)F)nc(C)n3)CC2)cc1OC
  NPR1 antag: -1%
structure: O=C(c1ccc(Br)o1)N1C[C@@H](CO)[C@H](c2ccccn2)C1
  NPR1 antag: 3%
structure: NC(=O)c1noc(CN2CCn3nc(CCC(=O)N4CCOCC4)cc3C2)n1
  NPR1 antag: 6%
structure: COc1ccccc1CNC(=O)[C@@H](C)C1CC[C@@]2(C)CC[C@H](NC(=O)c3ccncc3)[C@@H](C)[C@@H]2[C@H]1O (stereo partly specified)
  NPR1 antag: 5%
structure: Cc1nnc2n1C(C)CN(C(=O)Cn1nnc(-c3ccc(F)cc3)n1)C2 (stereo unspecified)
  NPR1 antag: 1%
structure: Cc1ccc(-c2ccc3nnc(CNC(=O)C(C)Oc4ccccc4)n3n2)cc1C (stereo unspecified)
  NPR1 antag: -1%
structure: Cc1nc(NCCc2ccn[nH]2)cc(C2CC(O)C2)n1 (stereo unspecified)
  NPR1 antag: -2%
structure: CCCCNC(=O)c1ccc2c(c1)N(C(=O)c1ccc(F)cc1)CC2
  NPR1 antag: -9%

structure: COc1cccc(CNC(=O)c2nnn3c2COC(c2ccc(C)cc2)C3)c1 (stereo unspecified)
  NPR1 antag: -17%
structure: CCCC(C)N1CC2(CCN(C(=O)c3sc(C)nc3CC)CC2)OC1=O (stereo unspecified)
  NPR1 antag: 3%
structure: COCc1ncc(C)n1C1CCN(C(=O)C2CCC2)CC1
  NPR1 antag: 5%
structure: COc1cccc(NC(=O)N2CCC(c3cc(-c4cccc(C)c4)n[nH]3)CC2)c1
  NPR1 antag: -24%
structure: O=C(NCc1nnnn1-c1ccccc1)C1CC2(CCNCC2)CN1 (stereo unspecified)
  NPR1 antag: 10%
structure: COc1cccc(NC(=O)Cn2c(=O)n(-c3ccccc3)c(=O)c3c2cc(C)n3C)c1
  NPR1 antag: 1%
structure: Fc1ccc(-c2ccnc3nc(C4CCC4)nn23)cc1
  NPR1 antag: -4%
structure: Cc1ccc(C2=NC3(CCN(C(=O)c4ccccc4Cl)CC3)ON2)cc1
  NPR1 antag: ?
structure: N#Cc1ccc(S(=O)(=O)N[C@H](Cc2ccccc2)C(=O)N2CCOCCNC(=O)CC2)cc1
  NPR1 antag: -2%
structure: CNc1ccc(OC2CCN(C(=O)CCc3nc4ccccc4[nH]3)C2)nc1 (stereo unspecified)
  NPR1 antag: -8%
structure: COc1ccc(-c2noc([C@@H]3CCCN3C(=O)CCc3ccccc3)n2)cc1
  NPR1 antag: -18%
structure: N#Cc1cc(CN2CCCC(C(=O)Nc3cccc(-c4ccc(F)cc4)c3)C2)c[nH]1 (stereo unspecified)
  NPR1 antag: -25%
structure: COc1ccc2cc(C3CN(S(=O)(=O)c4cn(C)cn4)CCO3)ccc2c1 (stereo unspecified)
  NPR1 antag: -10%
structure: COC(=O)[C@@H]1Cc2c([nH]c3ccccc23)[C@H]2C[C@@H](NCCNC(C)=O)C[C@@H](c3ccccc3F)N21
  NPR1 antag: -5%
structure: CC[C@H]1CN(S(=O)(=O)c2c(C)noc2C)CC[C@H]1CC(=O)N1CCC(C(=O)OC)CC1
  NPR1 antag: -16%

structure: COc1ccc(OCc2cc(C(=O)NC(CO)C(C)C)no2)c2ccccc12 (stereo unspecified)
  NPR1 antag: 10%
structure: COc1ccc(NC(=O)Cn2nc3n(c2=O)CCCCC3)cc1Cl
  NPR1 antag: 3%
structure: Cc1ccc(C(=O)N2CCC3(CC2)CC(O)CCO3)cc1 (stereo unspecified)
  NPR1 antag: -3%
structure: O=C(Cc1cccc(Cl)c1)NCc1nnc2ccc(-c3ccccc3)nn12
  NPR1 antag: -1%
structure: CCOCc1nc(C2CCCN(C(=O)c3cccc(C)c3)C2)no1 (stereo unspecified)
  NPR1 antag: 3%
structure: Cc1ccc(-c2ncc(NC(=O)c3cccs3)cn2)cc1
  NPR1 antag: -2%
structure: CCn1nc(CC(C)C)cc1C(=O)N(C)C1CCCN(C2Cc3ccccc3C2)C1 (stereo unspecified)
  NPR1 antag: 0%
structure: O=C1N(Cc2ccccc2F)CCOC12CCN(Cc1ccccc1)CC2
  NPR1 antag: -10%[70.6 µM]
structure: CC(C(=O)N1CCOCC1)N1C(=O)COc2ccc(C(=O)COc3ccc(Cl)cc3)cc21 (stereo unspecified)
  NPR1 antag: -1%
structure: COc1cccc(OCc2nc3c(n2Cc2ccccc2)C(=O)N(C)CCN3)c1
  NPR1 antag: -11%[70.6 µM]
structure: CC1(C(=O)NC2CCOCC2)CCCc2cnc(Nc3ccccc3)nc21 (stereo unspecified)
  NPR1 antag: -2%[70.6 µM]
structure: COc1ccccc1-n1nc(CC(N)=O)nc1-c1ocnc1C
  NPR1 antag: 1%
structure: Cc1ccc(C(=O)N2CCC(Oc3ccc(C(N)=O)cn3)CC2)cc1C
  NPR1 antag: ?
structure: Cc1ccc(-n2c(C3CCN(C(=O)c4nn(C)c5ccccc45)CC3)n[nH]c2=O)cc1
  NPR1 antag: 0%
structure: Cc1nc2ccc(C(=O)NCc3cccnc3Oc3ccccc3C)cc2[nH]1
  NPR1 antag: -20%

Additional structures:
smiles	NPR1 antag
Cc1ccc(-c2cn3c(n2)N(C(=O)c2cnccn2)CCC3)cc1	3%
CCNC(=O)NC[C@@H]1C=C(C)[C@H](CC(=O)NCc2ccccn2)C[C@H]1C(C)C	-1%[70.6 µM]
COCCn1nnnc1C1CC2(CCOCC2)C(=O)N1Cc1cccnc1 (stereo unspecified)	-1%
Cc1nn2c(c1-c1ccccc1C(C)C)N(Cc1cccc(C(=O)O)c1)CCC2	?
O=C(COc1ccccc1)Nc1ccc2c(c1)CN(CCc1ccc(F)cc1)C(=O)CO2	16µM*
COCc1nc(-c2ccc(OC3CCN(C(=O)CCc4ccc(OC)cc4)C3)cc2)no1 (stereo unspecified)	14µM*
Cc1ccc(-c2ccc3nnc(CNC(=O)c4ccoc4)n3n2)cc1C	2%
Cc1cc(-c2nc(-c3c(C)noc3C)cc3cc(C)oc23)ccn1	-12%[70.6 µM]
CN1CCc2c([nH]c3ccccc23)C12CCN(C(=O)c1cccnc1)CC2	0%
COc1ccc(-c2noc([C@@H]3Cc4nc[nH]c4CN3Cc3ccc(NC(C)=O)cc3)n2)cc1	1%
O=C(NC1CCCC1)NC1CC(c2nnc(CO)n2C2CC2)C1 (stereo unspecified)	1%
COc1cc(-c2noc(-c3ncn4c3COC(c3ccc(F)cc3)C4)n2)cc(OC)c1OC (stereo unspecified)	0%
O=C(Cn1ccn2nc(-c3ccccc3)c(CO)c2c1=O)N1CCN(c2ccccc2)CC1	-5%
O=C(CN1C(=O)NC2(CCS(=O)(=O)CC2)C1=O)NC1CCCCC1	1%
CC(C)CCN1C(=O)CC[C@@]2(C(=O)NCc3ncc[nH]3)CCCC[C@H]12	1%
CCN1c2cc(C(=O)Nc3ccc(C)cc3C)ccc2C(=O)N2CCCCCC21 (stereo unspecified)	0%
COCCn1c(=O)c2c(n1Cc1ccccc1)CN(Cc1ccccc1O)CC2	-1%[70.6 µM]
CN1CC2(CCN(Cc3ccc(C#N)cc3)CC2)CC(c2ccccc2)C1=O (stereo unspecified)	12%
Cc1ccc(CN2CCCC(CNC(=O)NC(C)C)C2)cc1C (stereo unspecified)	6%
CCNc1ncnc2sc3c(c12)CCN(C(=O)COC)C3	-8%
CC(C)CCNC(=O)Cn1ccn2nc3c(c2c1=O)CCCC3	2%
CN(CCO)c1ccc(C(=O)N2CCC(Oc3cccnc3)CC2)cn1	-2%
CCc1nc(-c2ccc(OC3CCN(Cc4cc(F)ccc4F)C3)cc2)no1 (stereo unspecified)	?
O=C(NCc1cccnc1)c1nc(-c2cccc(C(F)(F)F)c2)c2cnccn12	5%
Cc1noc(CC2CCOC3(CCN(Cc4ccc(F)cc4F)CC3)C2)n1 (stereo unspecified)	0%
O=C1Nc2ccccc2CC12CCN(CC1CC1)C2 (stereo unspecified)	0%[70.6 µM]
CN1CCN(c2nc3c(c(=O)[nH]2)CCN(Cc2ccc(Br)s2)CC3)CC1	-12%
Cc1nnc(-c2cc(-c3ccccc3)ccn2)n1CCN1CCOCC1	7%[70.6 µM]
CCN(CC)S(=O)(=O)NC1CCCN(CCCc2ccccc2)C1 (stereo unspecified)	-1%
COc1ccc(-c2cn3c(n2)CO[C@@H](CNCc2ccc(OC(F)(F)F)cc2)C3)cc1	?
CCOc1ccc2c(n1)CCN(C(=O)c1ccsc1)C2	0%
NC1CC(c2cc(N3CCN(c4ccc5nccn5n4)CC3)ncn2)C1 (stereo unspecified)	0%
COc1ccc(C(=O)N2CCN(c3cc(-c4ccc(Cl)cc4)[nH]n3)CC2)cc1	8.9µM*
CC(C)C(=O)N1CCC2(CC1)CC(N1CCCC1)CCO2 (stereo unspecified)	3%
Cc1ccc(-c2cc(C(=O)N3CCC(c4nc(C5CCOCC5)no4)C3)c3ccccc3n2)cc1C (stereo unspecified)	?
O=C(Cc1cccc(F)c1)N1CCCC(Cc2nc(C3CCOCC3)no2)C1 (stereo unspecified)	-3%
Cc1noc2c(NCC3CCOCC3)cc(-c3ccc(Cl)cc3)nc12	1%[70.6 µM]
Cc1ccc(C)c(-c2cc3c(=O)n(CCNC(=O)c4ccc(C#N)cc4)ccn3n2)c1	-23%
COC1C(=O)N(C2CCN(C(=O)c3ccc4[nH]ccc4c3)CC2)C12CCOCC2 (stereo unspecified)	2%
CC(C)CC(=O)Nc1ccc([C@H]2OCC(=O)N(Cc3nccn3C)[C@@H]2CO)cc1	4%[70.6 µM]
COCCCNC(=O)C(NC(=O)c1cccc(C)c1)C1CCN(C(=O)c2ccc(C)cc2)CC1 (stereo unspecified)	-7%
COc1ccc(CCNc2ncnc3c2CN(c2ccc(Cl)cc2)C(=O)N(C)C3)cc1	-6%
CC(C)C[C@@H]1N[C@H](C(=O)N2CCC(CO)CC2)Cc2c[nH]c3cccc1c23	2%[70.6 µM]
Cc1ccoc1C(=O)N1CC[C@@H](c2sccc2C)[C@H](O)C1	3%
COc1ccc(CNC[C@H]2O[C@H](Cc3cc(-c4ccccc4)on3)CC[C@@H]2O)cc1	-19%[70.6 µM]
COCCN(C)C[C@@H]1CN(C(=O)c2c(-c3ccccc3)ccnc2C)C[C@@H]1CO	1%
COC1CCOC2(CCN(C(=O)Nc3ccc4c(c3)OCCO4)CC2)C1 (stereo unspecified)	0%
O=C1CN(Cc2cc3n(n2)CCCNC3)CCN1Cc1ccc2c(c1)OCO2	3%
O=C(c1cc(Cl)ccc1F)N1CCC(OC2CCN(Cc3ccccc3)CC2)CC1	7%
CCN1C(=O)C2CC3(CCN(C(=O)c4sc(C)nc4C)CC3)CN2C1=O (stereo unspecified)	0%

An excerpt from above in order of their number in NPR1 antag, high to low.
smiles	NPR1 antag
COC1CCOC2(CCN(C(=O)Nc3ccc4c(c3)OCCO4)CC2)C1 (stereo unspecified)	0%
COc1ccc(CCNc2ncnc3c2CN(c2ccc(Cl)cc2)C(=O)N(C)C3)cc1	-6%
COCCCNC(=O)C(NC(=O)c1cccc(C)c1)C1CCN(C(=O)c2ccc(C)cc2)CC1 (stereo unspecified)	-7%

Continuation.
smiles	NPR1 antag
O=C(NCC1CCCN(C(=O)N2CCCC2)C1)c1ccc(-c2ccccc2)cc1 (stereo unspecified)	-2%
O=C1N[C@@H]2CCN(C(=O)c3ccc(C(F)(F)F)cc3)[C@@H]2C(=O)N1c1ccc(Oc2ccccc2)cc1	0%
O=C(c1ccccc1)N1CCN(C(=O)c2nnn3c2COC(c2ccccc2)C3)CC1 (stereo unspecified)	-3%
Cc1noc2c(-c3ccc(CO)cc3)cc(-c3cccs3)nc12	-3%[70.6 µM]
COCCn1c(=O)n([C@H]2CCCN(C(=O)CCc3ccccc3)C2)c2ncccc21	0%
CC(=O)N1CCC([C@@H]2CN(Cc3cccnc3)C[C@H]2CO)CC1	?
Cn1cccc1CN1CCC2(CC1)COc1ccccc1NC2=O	-6%[70.6 µM]
Cn1cc(CC(=O)N2CCCc3ncc(C(=O)N4CCN(CCO)CC4)cc32)c2ccccc21	-5%
CCC(C(=O)N1CCC(n2cc(-c3nc(C(C)C)no3)nn2)C1)c1ccccc1 (stereo unspecified)	0%
Cc1ccccc1-n1ncc(C(C)NC(=O)c2cc(F)ccc2F)c1C (stereo unspecified)	?
Cc1ccc(CN2CC[C@H](c3nnc(-c4ccccc4)o3)C2)cc1	1%[70.6 µM]

Given with values ahead of the structure: 6 of the compounds above
NPR1 antag | molecule
0% | COCCn1c(=O)n([C@H]2CCCN(C(=O)CCc3ccccc3)C2)c2ncccc21
? | CC(=O)N1CCC([C@@H]2CN(Cc3cccnc3)C[C@H]2CO)CC1
-6%[70.6 µM] | Cn1cccc1CN1CCC2(CC1)COc1ccccc1NC2=O
-5% | Cn1cc(CC(=O)N2CCCc3ncc(C(=O)N4CCN(CCO)CC4)cc32)c2ccccc21
0% | CCC(C(=O)N1CCC(n2cc(-c3nc(C(C)C)no3)nn2)C1)c1ccccc1 (stereo unspecified)
? | Cc1ccccc1-n1ncc(C(C)NC(=O)c2cc(F)ccc2F)c1C (stereo unspecified)

Screening results as filed in PubChem BioAssay.
